D2 agonist – agonists of human D2 dopamine receptor (beta-arrestin); P14416; DiscoveRx PathHunter D2 beta-arrestin, luminescence, 90 min; 100% = 57 uM dopamine signal; actives 0.084% (n = 360,000); activation, % (test concentration not listed); AID 624465; in the data active = activation above about 40%; inconclusive = about 15% to 40%; inactive = below about 15%; note: compound concentration not given in the record; the text of the record calls up to 30% inactive
Target sequence (P14416 whole entry, looked up): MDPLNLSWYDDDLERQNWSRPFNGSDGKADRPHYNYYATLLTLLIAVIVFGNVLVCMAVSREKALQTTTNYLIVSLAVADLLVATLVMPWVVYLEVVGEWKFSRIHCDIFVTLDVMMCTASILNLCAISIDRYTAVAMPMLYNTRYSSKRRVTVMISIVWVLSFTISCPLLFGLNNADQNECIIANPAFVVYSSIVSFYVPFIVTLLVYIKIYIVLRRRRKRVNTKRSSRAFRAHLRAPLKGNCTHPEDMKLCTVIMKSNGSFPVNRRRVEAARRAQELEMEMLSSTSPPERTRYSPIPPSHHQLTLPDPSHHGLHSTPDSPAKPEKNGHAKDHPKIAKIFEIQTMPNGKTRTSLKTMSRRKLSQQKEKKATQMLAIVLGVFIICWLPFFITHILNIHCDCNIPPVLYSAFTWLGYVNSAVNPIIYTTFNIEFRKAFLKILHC
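DiscoveRx PathHunter D2 beta-arrestin cells (2,100/well) attached overnight, then compound-stimulated 90 min at 37 C in HBSS/10 mM HEPES/0.1% Tween-20 buffer; beta-galactosidase complementation read by luminescence after 1 h at ambient temperature. Dopamine 57 uM final (EC100) as control.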
Six1-Eya2 inh – inhibitors of human Six1/Eya2 interaction | Q15475+O00167 | actives 0.56% (n = 360,000) | AID 651725 | activity change, % (no concentration beside the values) | AlphaScreen GST-Six1/His-Eya2 binding, biochemical; active compounds read low; control for the full effect not named in the record; in the data active = activity change below about -65%; inconclusive = about -30% to -65%; inactive = above about -30%; note: % is set by controls: 0 for no effect and ±100 for the full control effect
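Homogeneous AlphaScreen proximity assay pairing GST-Six1 with His-tagged Eya2 (added as 5X mix: 250 nM and 500 nM) in 50 mM Tris pH 8.0, 300 mM NaCl, 1 mM TCEP. Glutathione donor and nickel acceptor beads; 1 h, 37 °C, dark.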
D2 potentiator – human D2 receptor positive allosteric modulation | AID 624464 | DiscoveRx D2 beta-arrestin cells, luminescence, 90 min; 100% = 57 uM dopamine signal | potentiation, % (test concentration not listed) | actives 0.23% (n = 360,000); active = potentiation of 50% or more; inconclusive = 30% to 50%; inactive = 30% or less;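 note: compound concentration not given in the record; tested on top of an EC20 dose of dopamine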
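PathHunter D2 cells, attached overnight at 37 deg C, received compound in DMSO plus dopamine at EC20 (50 nM final) for 90 min at 37 deg C. Beta-arrestin recruitment was read as luminescence after 1 h with detection reagent at ambient temperature.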
gsp agonist – agonists of gsp mutant (McCune-Albright syndrome); AID 624287; actives 0.13% (n = 340,000); Potency, µM (doses to about 76.9 µM), inactives show at the top dose activation (cAMP increase), most hits filed as activators; gsp mutant cells, cAMP HTRF, 30 min; control for the full effect not named in the record; active = well fitted activation curve with a large enough effect; inconclusive = small, poorly fitted or top-dose-only effect, or another doubt; inactive = no such curve, though single readings can be large or run the other way; cell line not stated here;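 note: phosphodiesterase inhibitor Ro 20-1724 added with compounds to block cAMP breakdown; potency is the fitted concentration of half-maximal effect; nearly all actives have a fitted effect of over 60% in size; about a fifth of the inactives were tested at one dose only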
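Cells in DMEM/10% FBS with G418 were pretreated with compounds in DMSO plus […] (300 uM stock) for 30 min at 37C. cAMP was measured by HTRF (cAMP-d2 plus anti-cAMP antibody-K) after 30 min at room temperature.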
gsp antag – gsp mutant antagonism. actives 0.4% (n = 340,000). gsp-mutant cells, cAMP HTRF, 30 min; control for the full effect not named in the record. Potency, µM (top dose mostly 76.9 µM), for the others: top-dose activity change, negative = inhibition, usual class: inhibitors. AID 624288; active = falling curve of any shape with a large fitted effect; inconclusive = falling curve, mostly with a smaller effect; inactive = flat or rising curve; cell line not stated here;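 note: intracellular cAMP measured with PDE inhibitor Ro 20-1724 present during compound exposure; potency is the fitted concentration of half-maximal effect; % is set by controls: 0 for no effect and ±100 for the full control effect; nearly all actives have a fitted effect of over 65% in size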
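G418-selected cells were plated in DMEM/10% FBS for 16-24 h at 37C, then treated with compounds plus the PDE inhibitor […] (300 uM solution added) for 30 min at 37C. Intracellular cAMP was measured by HTRF after 30 min lysis at room temperature.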
CtBP-E1A blk – blocks the CtBP interaction with E1A; AlphaScreen GST-E1A/His-CtBP binding, 1536-well; active compounds read low; control for the full effect not named in the record; activity change, % (no concentration beside the values); actives 0.49% (n = 340,000); in the data active means activity change below about -65%; inconclusive means about -30% to -65%; inactive means above about -30%; note: % is set by controls: 0 for no effect and ±100 for the full control effect
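Protein mix (5X: 125 nM each GST-E1A, His-CtBP) was incubated with pinned compound 2 h at 37 deg C in dark, in 50 mM Tris pH 8.0 buffer with 300 mM NaCl. Glutathione donor and nickel acceptor beads followed; AlphaScreen signal read after 1 h.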
Active calls of the source: *; ? = inconclusive; . = no result given; & = joins results of further samples; [ ] = another dose, or the depositor's remark.

The line under a structure holds: D2 agonist, D2 potentiator, Six1-Eya2 inh, CtBP-E1A blk, gsp antag, gsp agonist
Cc1cccc2c(N)c3c(nc12)CCCC3 (tested in a mixture with another compound)
 : -5.3, -1, -14, -21, -6%, -30%[inhibitor]
CC(=O)/C=C\c1ccc(OC(=O)c2cccnc2)cc1
 : 0.5, 1, -1, 2, 1%, -5%
Cc1cc(/C=C2/C(=N)N3C(c4ccccc4)=CSC3=NC2=O)c(C)n1-c1ccc(Cl)cc1
 : -2.7, 1, 4, -2, 0%, 1%[15.4 µM]
Cc1ccc(-c2nn(-c3ccccc3)cc2/C=N/NC(=O)c2ccc(Br)o2)cc1
 : 4.3, -10, 3, 3, 32µM*, 0%
Cc1cc(S(=O)(=O)N2CCN(c3ccc(F)cc3)CC2)ccc1-n1cnnn1
 : 1.4, 6, -4, 6, -1%, -13%
CC(=O)Nc1ccc(S(=O)(=O)NNC(=O)c2sc(=S)n(C)c2C)cc1
 : -2.8, 11, -21, 4, 19%, -4%
COc1ccc(/C=C(\C#N)C(=O)OCC(=O)NCc2ccccc2)cc1
 : 1.5, 16, 2, 14, 7%, 18%
COc1ccc(OC)c(C(=O)CC2OC(=O)c3ccccc32)c1 (stereo not drawn)
 : -2.7, -11, 2, 2, -16%, ?
C/C(=C\c1ccc2c(c1)OCO2)C(=O)c1c(C)cc(C)[nH]c1=O
 : -6.2, -5, -4, ., -4%, -32%
Cc1ccc(NC(=O)c2c(Cl)n(C)c3ccccc23)cc1
 : -4.5, -14, 5, -21, -7%, ?
CC(=C1C2C=CC1C1C(=O)NC(=O)C21)c1ccccc1 (stereo not drawn)
 : -2.6, -12, -1, -4, -2%, 11%
O=C(Nc1cc(Cl)ccc1N1CCOCC1)c1ccc2c(c1)OCO2
 : 2.3, 9, 4, 4, ., -8%
Cc1c(NC(=S)NNC(=O)CCC(=O)O)c(=O)n(-c2ccccc2)n1C
 : 1.0, -1, 6, 2, 17%, -48%[inhibitor]
CCOc1ccccc1N1CC(C(=O)Nc2ccccc2N2CCCC2)CC1=O (stereo not drawn)
 : -1.0, -23, 1, -9, -15%, -16%[15.4 µM]
CC(C)c1ccc(C(=O)Nc2ccc(CN3CCOCC3)cc2)cc1
 : -1.0, -5, 11, -5, 1%, 12%[15.4 µM]
COc1ccc(-c2nc3ccccc3nc2-c2ccc(OC)c(OC)c2)cc1OC
 : -0.1, 19, 8, ., -9%, 6%
CC1CCN(C(=O)/C=C/c2ccc(C(C)(C)C)cc2)CC1
 : -3.1, 6, 1, -2, -13%, ?
O=C1NCCc2c1[nH]c1ccc([N+](=O)[O-])cc21
 : -7.6, 5, -9, 6, -9%, 0%[15.4 µM]
CCOc1ccc(-c2c(C(=O)N/N=C/c3ccncc3)nnn2-c2nonc2N)cc1
 : 11, 5, 4, -16, -4%, -18%
CC(C)(C)c1ccc(C(=O)NC(CC(=O)O)c2ccc(OC3CCCC3)cc2)cc1 (stereo not drawn)
 : -4.0, -4, 6, ., 6%, 12%
COc1ccc(S(=O)(=O)N2CCC(C(N)=O)CC2)c2ccccc12
 : 0.7, -19, -15, -1, -9%, 18%
Cc1ccc(C)c2[nH]c(=O)c(CN(Cc3ccco3)C(=O)Nc3ccccc3)cc12
 : -1.0, -22, -5, -5, -18%, 0%
Cc1ccccc1NS(=O)(=O)c1ccc(Cl)cc1
 : -5.0, 1, 8, -17, -4%, -13%[15.4 µM]
CN(Cc1ccccc1)C(=S)Nc1cccnc1
 : 0.4, 10, -7, 13, 12%, -1%[15.4 µM]
COCc1nnc(NS(=O)(=O)c2c(C)cc(C)cc2C)s1
 : 1.8, 4, 11, 9, ?, 10%
CCCCN(C)C(=O)c1ccc(Nc2nc(C(N)Cc3ccccc3)cs2)nc1 (stereo not drawn)
 : -4.8, -9, ?, ?, ., .
Cc1ccn2cc(CCNS(=O)(=O)c3ccc(F)c(C(F)(F)F)c3)nc2c1
 : -0.2, -5, -4, 3, 2%, -10%
CC(=O)c1cccc(OCc2cc(C(=O)NC(C)Cc3cccnc3)no2)c1 (stereo not drawn)
 : -2.4, -11, -3, -15, 2%, 5%
O=C(CC1CC2CCC1C2)NC1CCCCCCC1 (stereo not drawn)
 : 1.5, -1, 5, 4, -5%, -85%[inhibitor]
Cc1ccccc1N=CC1=C(O)c2ccccc2C1=O
 : 4.0, 2, -7, -2, -23%, -22%[15.4 µM]
Cc1cc(C)n(CC(O)COc2ccccc2[N+](=O)[O-])n1 (stereo not drawn)
 : -0.2, 3, 1, -6, -6%, -15%
Cc1cc(C(=O)N2CCCC(N3CCN(c4ccc(F)cc4)CC3)C2)c(C)o1 (stereo not drawn)
 : -3.9, -25, -4, -13, -3%, ?
O=C(COC(=O)CNC(=O)c1ccc(Cl)cc1)Nc1ccc2c(c1)OCCO2
 : -5.1, -15, -2, 0, -12%, 25%
Cc1ccc(C)c(S(=O)(=O)N2CCCC2CNC(=O)C(=O)NCCc2ccccc2)c1 (stereo not drawn)
 : 1.2, -14, 4, 2, -21%, 3%
COc1cccc(CNC(=O)C2CCN(C(=O)N(C)C)CC2)c1
 : 2.1, -5, 1, 0, 2%, 5%
Cc1n[nH]c(C)c1S(=O)(=O)N1CCCC(C(=O)Nc2nccs2)C1 (stereo not drawn)
 : -0.3, -9, 3, 0, 15%, -3%
C[C@@H]1CN([C@@H](C)CO)C(=O)CCCn2nncc2CO[C@H]1CN(C)Cc1cccc(C(F)(F)F)c1
 : -0.3, ., -2, 6, ., 30%
COc1ccc(OC)c(NC(=O)COc2ccc3c(c2)CCC3)c1
 : 1.4, -3, -3, -4, -26%, -41%[inhibitor]
O=C(CCC(=O)c1ccc(Cl)cc1)NCc1ccccc1
 : -3.1, -11, 3, ., 7%, -20%
CC1CN(C(NC(=O)C(C)(C)C)C(Cl)(Cl)Cl)CC(C)O1 (stereo not drawn)
 : -0.1, 9, 5, 6, 2%, 6%
CC[C@H](C)C(=O)O[C@H]1C[C@@H](C)C=C2C=C[C@H](C)[C@H](CC[C@@H]3C[C@@H](O)CC(=O)O3)[C@H]21
 : -0.7&3.2, 11&1, -1&-4, 5&-5, 3%&-15%, .
CC(C)CN(C(=O)Cn1c(Cl)nc2c1c(=O)n(C)c(=O)n2C)C1CCS(=O)(=O)C1 (stereo not drawn)
 : 0.9, 15, 1, 1, 17%, -44%[inhibitor]
O=C(Nc1ccc(Cl)c(Cl)c1)NC1CCS(=O)(=O)C1 (stereo not drawn)
 : -2.5, -6, -4, 0, 6%, -7%[15.4 µM]
COC(=O)c1sc(NC(=O)CCCn2nc([N+](=O)[O-])cc2C)c(C(=O)OC)c1C
 : -0.3, 0, -1, 0, -1%, 19%
CC(=O)Nc1ccc(S(=O)(=O)N2CCN(c3cc(C)nc4ccccc34)CC2)cc1
 : -0.4, 7, -1, -4, -7%, 5%
O=C(Nc1ccccc1C(=O)NC1CCCC1)NC1CCCC1
 : -4.1, -14, 0, 11, 11%, -21%
COc1ccc(C)cc1Nc1n[n+](-c2ccccc2)c(-c2c(OC)ccc3ccccc23)s1
 : -2.1, -22, -22, -22, -16%, .
Fc1ccc(CSc2nnc(-c3ccco3)o2)cc1
 : 8.1, 1, 3, ., -5%, -11%
Cc1ccc2nc(N(CCCN(C)C)C(=O)c3ccc(S(=O)(=O)N(C)C)cc3)sc2c1
 : -0.7, -28, 1, 1, 11%, -4%
Cc1cc(NC(=O)CSc2nccn2-c2ccc(Cl)cc2)no1
 : -1.0, 5, -7, -2, 4%, -22%

Continued.
The line under a structure holds: D2 agonist, D2 potentiator, Six1-Eya2 inh, CtBP-E1A blk, gsp antag, gsp agonist
CC(=O)Nc1cc(C(F)(F)F)ccc1OCC1CCCO1 (stereo not drawn)
 : -2.9, -4, 3, 7, -9%, 1%
Nc1cc(C(=O)OCC(=O)Nc2cccc(S(=O)(=O)N3CCOCC3)c2)ccc1Cl
 : 0.5, -1, -2, -3, -13%, -1%
O=C(CSc1nnc(-c2cccs2)n1CC1CCCO1)N1CCCC1 (stereo not drawn)
 : -8.6, -1, 5, -1, 8%, 5%[15.4 µM]
COCCCN1C(=O)C(=O)/C(=C(/O)c2ccc(OC(C)C)cc2)C1c1ccc(O)c(OC)c1 (stereo not drawn)
 : -1.1, 12, 8, 2, -2%, 32%
CC#CC[N+](C)(C)CC(=O)c1ccccc1
 : -2.6, -3, 6, -2, -14%, ?
Fc1ccccc1Cc1noc(CN2CCC(OCc3cccnc3)CC2)n1
 : 2.1, -7, 6, 2, 3%, 1%
O=C(NCC(=O)N1CCN(S(=O)(=O)c2cccc(F)c2)CC1)c1ccc(Br)o1
 : 4.9, -8, 6, 7, -8%, -10%
Cc1ccc(CN2C(=O)N/C(=C\c3ccc(-c4ccc(C(=O)O)cc4C)o3)C2=O)cc1
 : -2.4, -4, -8, 11, -22%, 4%
Cc1cc(NC(=O)CSc2nnc(-c3ccco3)n2C)no1
 : -3.5, -7, 8, ., 7%, 16%
Cc1cc(=O)oc2cc3c(cc12)OCCO3
 : -2.9, 6, 6, 6, 11%, ?
CC1CCCC(C)N1C(=O)Cn1cc(C#N)c2ccccc21 (stereo not drawn)
 : -0.4, -4, 5, 0, -6%, -31%[inhibitor]
CC(NC(=O)C(C)N1CCN(S(=O)(=O)c2ccccc2)CC1)c1ccccc1 (stereo not drawn)
 : 1.0, -7, -14, 10, 14%, -48%[inhibitor]
Cc1ccc([N+](=O)[O-])c(OCCCN2CCC(Cc3ccccc3)CC2)c1
 : 1.9, -8, -21, ., -6%, 2%
Nc1c(-c2cccc(Cl)c2)cnc2c(-c3ccccc3)cnn12
 : 2.5, -7, 1, 11, -18%, 4%[15.4 µM]
CN1C(=O)N(S(=O)(=O)c2ccc(F)c(F)c2F)C(=O)C1(C)C
 : -1.8, 13, 3, 4, 9%, -1%
CCN(CC)C(=O)CSc1nnc(-c2cc3ccccc3cc2O)n1CC
 : -2.4, -5, -8, -6, -24%, 3%
CCOC(=O)N1CCC(=NNC(=O)c2ccccc2F)CC1
 : -0.2, -17, 1, 12, 6%, 26%[15.4 µM]
Cc1cc(C)cc(OC(C)C(=O)Nc2ccc3c(c2)n(C)c(=O)n3C)c1 (stereo not drawn)
 : 0.4, -19, 6, ., -7%, 6%
COc1ccc(/C=N/NC(=O)c2cccc([N+](=O)[O-])c2)cc1OS(=O)(=O)c1ccc(C)cc1
 : 1.7, -6, -13, -18, 0%, 0%
Nc1nnc(-c2ccncc2)s1
 : -0.6, -10, 4, -1, 8%, 19%

Some entries already given, showing only gsp agonist and CtBP-E1A blk.
molecule	gsp agonist	CtBP-E1A blk
Cc1cc(=O)oc2cc3c(cc12)OCCO3	?	6
O=C(CSc1nnc(-c2cccs2)n1CC1CCCO1)N1CCCC1 (stereo not drawn)	5%[15.4 µM]	-1
CC[C@H](C)C(=O)O[C@H]1C[C@@H](C)C=C2C=C[C@H](C)[C@H](CC[C@@H]3C[C@@H](O)CC(=O)O3)[C@H]21	.	5&-5
